Assay outcomes from PubChem.
HNF4A DNA FP: change in binding of human HNF4 alpha to DNA; HNF4a-FITC DNA binding, fluorescence polarization, 1 h; AID 1224865; activity change, % at 10 µM; hit rate 0.3% among 360,000; in the data active = activity change above about 30%, passing the limit was not always enough;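 note: controls were the assay level and a saturating level of protein; the project sought stronger binding though the title names inhibitors; some compounds called inactive have numbers as strong as hits; positive values seem to mean higher polarization but the record does not say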
Target sequence (P41235 whole entry, looked up): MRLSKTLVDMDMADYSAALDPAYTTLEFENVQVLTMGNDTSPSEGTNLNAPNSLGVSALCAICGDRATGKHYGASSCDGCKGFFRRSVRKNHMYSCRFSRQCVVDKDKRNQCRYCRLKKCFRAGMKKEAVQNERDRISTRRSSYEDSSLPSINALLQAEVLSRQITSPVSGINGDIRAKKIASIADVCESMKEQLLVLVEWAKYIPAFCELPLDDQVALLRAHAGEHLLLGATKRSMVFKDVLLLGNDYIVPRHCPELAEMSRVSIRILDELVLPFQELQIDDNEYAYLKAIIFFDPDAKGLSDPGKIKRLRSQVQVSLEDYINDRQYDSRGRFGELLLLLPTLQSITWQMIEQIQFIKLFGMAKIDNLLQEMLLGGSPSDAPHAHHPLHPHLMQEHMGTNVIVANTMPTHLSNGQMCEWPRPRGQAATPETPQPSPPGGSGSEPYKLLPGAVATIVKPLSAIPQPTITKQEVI
ALR H2O2 inh: blocks human ALR sulfhydryl oxidase activity; P55789; purified ALR, DTT oxidation, H2O2 HRP-luminol luminescence; AID 485317; hit rate 3.8% among 290,000; inhibition, % (no concentration beside the values);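 active = mean and each replicate at 75% or more; inconclusive = only one of the two met; inactive = neither met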;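 note: stock transfer was 7.5 nL into about 7.5 µL; 0% = neutral wells and 100% = wells with inactivated enzyme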
Target sequence (P55789 whole entry, looked up): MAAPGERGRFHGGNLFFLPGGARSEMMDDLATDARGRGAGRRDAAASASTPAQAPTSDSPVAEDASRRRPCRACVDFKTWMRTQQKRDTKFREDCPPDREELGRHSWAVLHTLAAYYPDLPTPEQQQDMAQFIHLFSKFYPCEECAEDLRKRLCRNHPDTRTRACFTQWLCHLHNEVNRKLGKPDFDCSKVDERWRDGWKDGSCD
B2AR ag: activates human beta-2 adrenergic receptor causing internalization. hit rate 0.43% among 340,000. Am2.2-beta2AR cells, FAP receptor internalization, flow cytometry; reference of the scale not given here. response, % (no concentration beside the values). P07550;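 active = response above a set limit, near 3 SD of response in nonfluorescent compounds, cut at about 42% in these data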;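 note: stock transfer was 100 nL into about 11 µL; a reference agonist was the positive control; negative values mostly stem from fluorescent compounds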
Target sequence (P07550 whole entry, looked up): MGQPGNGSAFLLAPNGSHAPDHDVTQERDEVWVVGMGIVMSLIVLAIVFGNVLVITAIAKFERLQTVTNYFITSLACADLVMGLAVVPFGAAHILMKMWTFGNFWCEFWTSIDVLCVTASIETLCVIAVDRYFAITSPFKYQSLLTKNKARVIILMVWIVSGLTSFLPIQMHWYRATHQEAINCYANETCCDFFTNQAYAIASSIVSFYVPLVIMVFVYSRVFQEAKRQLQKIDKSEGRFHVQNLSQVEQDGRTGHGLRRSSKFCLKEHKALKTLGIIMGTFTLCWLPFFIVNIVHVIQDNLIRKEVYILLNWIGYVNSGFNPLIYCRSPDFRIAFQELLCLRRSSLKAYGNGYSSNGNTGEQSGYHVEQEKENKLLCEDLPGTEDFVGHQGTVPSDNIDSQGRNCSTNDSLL
RanGTP-Imp inh: disruptors of Ran-importin-beta complex formation – biochemical, FRET, CFP-Ran, YFP-importin-beta, homogeneous, primary screen. cell-free CFP-Ran/YFP-importin-beta FRET ratio. inhibition, % (concentration not given with the values). hit rate 1.1% among 300,000. AID 2216;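 active = most replicates above 15%; inconclusive = exactly half above 15%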;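 note: 0% = DMSO wells and 100% = Ran loaded with GDP instead of GTP; wells of about 40 µL received 100 nL stock; the first replicate is given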
Vif A3G: inhibitors of Vif binding to APOBEC3G peptide, primary screen, biochemical, TR-FRET, GST-Vif 1-94, biotin-A3G peptide, dose response retest (AID 1117319); hit rate 0.57% among 260,000; TR-FRET GST-Vif / biotin-A3G peptide binding; higher % means a stronger effect; test concentration not given here; strong numbers were not always called active; inhibition, %; hits with a dose series show IC50 in µM;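 active = above the screen mean plus three standard deviations and confirmed in dose response; inconclusive = results disagree or hit not tested in dose response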;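 note: Vif residues 1-94 fused to GST binding biotinylated APOBEC3G peptide 110-148; 0% = full assay without inhibitor and 100% = GST in place of GST-Vif; retest series ran down from 100 µM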
LANA-H2B inh: blocks KSHV LANA binding to histone H2A/H2B. Q9QR71. hit rate 0.6% among 320,000. inhibition, % (no concentration beside the values). cell-free LANA-H2A/H2B peptide, fluorescence polarization. AID 2629; in the data active = inhibition mostly above about 10%, no sharp cut-off; inactive = mostly below about 6.7%;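 note: stock transfer was 7.5 nL into about 10 µL; 0% = median of vehicle wells and 100% = median of positive control wells; one replicate is shown; the record names a cut of 25% in any replicate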
Calb FLC: C. albicans growth modulation with fluconazole; C. albicans CaCi-2 (fluconazole-resistant clinical isolate) + fluconazole, Alamar Blue growth, 48 h; growth inhibition, % (concentration not given with the values); hit rate 0.57% among 300,000; AID 1979;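 active = most replicates above 75%; inconclusive = exactly half above 75%; inactive = most below 75%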;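 note: all wells also contain fluconazole at 8 µg/ml as a sub-toxic cotreatment; 0% = median of DMSO wells and 100% = median of geldanamycin control wells; wells of about 8 µL received 7.5 nL stock; the first replicate is given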
Active calls of the source: *; u = inconclusive; x = no result given; & = joins results of further samples.

SMILES	HNF4A DNA FP	ALR H2O2 inh	B2AR ag	RanGTP-Imp inh	Vif A3G	LANA-H2B inh	Calb FLC
O=C(Oc1ccc(N(C(=O)c2ccncc2)S(=O)(=O)c2ccc(Cl)cc2)cc1)c1ccncc1	5.0	31	-8	-2.9	u	4.1	9
CCCCNC(=S)Nc1ccc(-c2nc3ccc(C)cc3s2)cc1	2.2	x	2	1.2	x	3.1	u
COC(=O)c1sc2ccccc2c1NC(=O)c1ccc(S(=O)(=O)N2CCCCC2)cc1	1.6	-10	3	2.7	-27%	5.6	-13
c1ccn2c(Cc3nnc4ccccn34)nnc2c1	-1.8	-14	7	1.2	4%	-3.3	-6
COc1cccc(NC(=O)COC(=O)/C=C/c2c(C)nn(-c3ccccc3)c2C)c1	2.5	x	3	x	-1%	-3.9	x
COC(=O)c1cc(CSc2nnc(NC3CCCCC3)s2)oc1C	1.3	x	10	-3.6	1%	0.6	-12
C[C@@H]1CN([C@@H](C)CO)C(=O)Cc2cc(NC(=O)C3CCCCC3)ccc2O[C@H]1CN(C)S(=O)(=O)c1ccccc1	-1.5	-6	0	x	x	1.3	x
COc1ccccc1NCC(=O)c1ccc(Cl)cc1	-0.2	-6	1	1.9	x	-0.9	-2
Cc1ccc(-c2csc(NC(=O)CSc3ncn(-c4ccccc4)n3)n2)cc1	-1.9	x	-7	2.4	u	1.0	3
O=C(CN1CCN(C(=O)C2CCCO2)CC1)Nc1ccc(Br)cc1 (configuration not stated)	0.1	-2	2	-4.4	x	-7.2	5
Cc1ccc(-n2nc3c(c2NC(=O)c2cccs2)CS(=O)(=O)C3)cc1	0.1	4	0	-0.2	x	-1.8	-8
O=C(CN1CCN(c2ccccn2)CC1)N1c2ccccc2CCc2ccccc21	4.2	4	-14	u	u	-1.4	5
Cc1cc(-c2nnc(CCC(=O)NC(C)(C)C34CC5CC(CC(C5)C3)C4)o2)no1	-0.2	0	-10	-3.8	x	0.4	-3
COc1cc(CNC(C)(C)C)ccc1OCC(=O)NC(C)(C)C	5.7	8	-1	2.5	-1%	0.4	-5
CN(C)c1c(F)cc(-c2nn[nH]n2)cc1F	3.7	-20	2	5.0	-7%	2.6	-23
Cc1ccccc1-c1nnn(Cc2ccc(F)cc2Cl)n1	1.5	6	-1	-2.6	11%	2.3	-8
CCCc1cc(=O)oc2cc(OC3CCCCC3=O)ccc12 (configuration not stated)	2.6	14	-9	-1.1	-3%	-3.2	-3
Cc1ccc(C(=O)CSc2nnc(C(C)C)n2C)cc1C	-0.7	17	-9	0.7	8%	-6.2	5
COc1ccc(C[C@H]2CN3C(=NC[C@@H]3C(C)C)N2CCNC(=O)CCC2CCCCC2)cc1	-0.5	1	2	5.3	2%	8.0	31
CCC1(C)Cc2c(sc(NC(=S)NC(=O)c3ccccc3)c2C#N)CO1 (configuration not stated)	-3.0	0	6	2.8	x	0.0	-1
CCCc1ccc2oc(C(=O)NCCN3CCCC(O)C3)c(C)c2c1 (configuration not stated)	3.1	x	10	u	x	x	-2
Cc1cccc(C(=O)N2CCc3c([nH]c4ccccc34)C2CC(C)C)n1 (configuration not stated)	-0.7	16	2	u	3%	2.7	13
COc1cc(/C=N/NC(=O)c2ccc(CSc3nncn3C)cc2)cc(OC)c1O	1.8	100*	-5	3.5	12%	0.1	0
CN(CCOc1ccc(Cl)cc1)C(=O)c1cccc(S(=O)(=O)N2CCN(c3ccc(F)cc3)CC2)c1	2.3	x	-5	x	-3%	x	x
CN(C)c1ccc(/C=N/NC(=O)c2ccc(CN3C(=O)c4cccc5cccc3c45)cc2)cc1	x	x	x	4.7	x	1.6	6
Fc1ccccc1NC(=S)N1CCC(c2ccccc2)C1 (configuration not stated)	5.4	2	11	1.6	-9%	-1.7	-3
COc1cc(C(=O)N/N=C(\C)Cc2ccccc2)cc(OC)c1OC	0.4	41	-5	9.0	x	0.6	3
Cc1cccc(C(=O)NNC(=O)c2cc3cc4ccccc4nc3s2)c1	-2.8	9	-10	5.0	4%	-4.9	9
COc1ccc(CN(CCc2ccccc2)Cc2ccccc2)cc1OC	2.0	-13	9	-1.7	x	-2.9	2
CC(=O)c1ccc(S(=O)(=O)Nc2ccccc2C(=O)NC2CC2)cc1	-1.9	-2	4	x	-2%	2.7	x
O=C1CCCN1CCCN1CC(C(=O)N(CCO)Cc2ccccc2)CCC1=O (configuration not stated)	0.1	-1	-4	-0.6	x	7.4	3
NC(=O)NC1(C(=O)O)CCCC1	3.0	x	-6	x	-3%	x	x
O=c1oc2ccccc2cc1-c1nc(-c2ccccc2)no1	0.8	-14	-3	1.8	0%	9.2	2
COc1ccc(N2CCN(C(=O)c3ccccc3NS(=O)(=O)c3ccccc3)CC2)cc1	1.0	41	3	-0.7	x	-4.8	-5
CCOc1ccc(NC(=O)CSc2nncc(=O)[nH]2)cc1	-2.0	99*	-7	1.8	x	21	0
CN1CCN(c2sc(S(C)(=O)=O)nc2S(=O)(=O)c2ccc(Cl)cc2)CC1	-5.7	2	-6	2.3	x	1.3	-6
CC(C)(C)NC(=O)c1cccc(NC(=O)CSc2ccccc2)c1	-5.6	-2	0	3.0	-4%	3.8	-2
CC(=O)N/C(=C\c1ccccc1)C(=O)OCC(=O)NC1CCS(=O)(=O)C1 (configuration not stated)	3.4	2	-1	x	-3%	-8.8	x
CC(C)(C)NC(=O)/C(=C\c1ccco1)NC(=O)c1cccs1	-6.0	2	-14	2.5	10%	4.2	u
COc1ccccc1NC(=O)CSc1n[nH]c(-c2ccccn2)n1	1.9	3	2	1.8	x	0.2	-11
N/C(=N\OC(=O)c1ccco1)c1cccc([N+](=O)[O-])c1	4.3	35	4	-1.2	x	-3.0	-1
O=C(Nc1ccn(-c2ccccc2)n1)c1ccccc1Br	3.1	1	0	2.5	11µM*	-3.4	-4
Cc1ccc(NC(=O)CSc2ncn[nH]2)cc1	4.7	-3	-7	0.9	x	5.8	0
COc1ccc(CCNC(=O)C2CCN(S(=O)(=O)c3ccc4nc5c(c(C(=O)O)c4c3)CCCC5)CC2)cc1OC	-3.3	-6	-3	7.0	x	-0.3	-53
Cc1ccc2c(c1)N(CC(=O)OC(CC(C)C)C(=O)NC1CCCC1)C(=O)CO2 (configuration not stated)	-3.9	-1	-9	0.6	6%	-1.1	-12
COc1cc2ccccc2cc1C(=O)OCC(=O)NC1CCS(=O)(=O)C1 (configuration not stated)	-1.4	-3	2	7.9	6%	-1.0	-14
Cc1ccc(N2CC(C(=O)N3CCC(C(=O)Nc4nnc(C(C)(C)C)s4)CC3)CC2=O)cc1 (configuration not stated)	3.3	1	9	-4.9	x	-2.9	7
c1ccc(-c2nc3nonc3c3nc4ccccc4n23)cc1	0.1	1	0	2.3	4%	-1.1	1
C=CCn1c(=O)c(C(=O)NCc2ccc3c(c2)OCO3)c(O)c2ccccc21	-1.8	-12	2	1.5	1%	-0.7	u
CCOC(=O)c1cnc2c(cnn2C)c1Cl	1.5	-2	4	0.4	7%	-198	8
Cc1ccc(C(=O)N2CCCC(c3nc4c(nnn4Cc4ccccc4)c(=O)[nH]3)C2)cc1 (configuration not stated)	2.8	x	5	x	-4%&-2%	-3.2	-1
COC(=O)c1ccc(CN2[C@H](C(=O)OC)C[C@@]3(O)[C@@H](O)[C@@H](O)[C@@H](O)C[C@@H]23)cc1	-2.6	x	-10	1.8	-2%	-1.1	-8
CCCCN1C(=S)NC[C@@H]1C(C)CC (some centres not stated)	0.8	x	-1	-6.8	7%	1.5	-7
C=CCc1cccc2cc(C(=O)OCC)c(=O)oc12	-2.5	5	-2	-0.1	32%	-5.3	5
COc1ccccc1CN1CC(C(=O)N(C)Cc2ccncc2C)CCC1=O (configuration not stated)	4.0	-11	-4	-2.6	-1%	-1.6	-12
O=C(Nc1nnc(COc2ccc(F)cc2)s1)c1ccco1	1.6	-11	19	0.3	2%	-0.9	u
COC(=O)[C@@]1(Cc2ccc(F)cc2)[C@H]2c3cc(C(=O)N4CCCC4)n(CCCNc4ncc(C(F)(F)F)cc4Cl)c3C[C@H]2CN1C(=O)c1ccccc1	14	-7	3	3.1	x	1.7	2
CCOc1ccc(C(=O)N2CCCC(c3nc(-c4ccc(C)o4)no3)C2)cc1 (configuration not stated)	1.7	-15	-8	0.6	-7%	-3.8	13
CCOC(=O)Cn1c(=O)oc2cc(S(=O)(=O)Nc3ccc(N(CC)CC)cc3C)ccc21	0.0	99*	-1	0.0	23%&-3%	-3.9	7
CC(CNc1nc2ccc(Cl)cc2n2cnnc12)c1ccccc1 (configuration not stated)	-4.0	-11	-2	1.8	-30%	-4.3	6

Next part:
SMILES	HNF4A DNA FP	ALR H2O2 inh	B2AR ag	RanGTP-Imp inh	Vif A3G	LANA-H2B inh	Calb FLC
Cc1ccc(NC(=O)Nc2ccno2)cc1	-5.9	15	3	-1.2	-4%	-4.1	23
Cc1cccc(CN2CCN(CC(=O)NCc3ccc(F)cc3)C2=O)c1	0.5	-12	4	3.1	x	-1.2	0
Cc1c(NC(=O)CN2CCC(C(N)=O)CC2)cccc1[N+](=O)[O-]	1.1	-5	-1	-0.9	-5%	5.1	-42
COc1ccc(-c2cc3ccccc3oc2=O)cc1NC(=S)NC(=O)c1ccc2c(c1)OCCO2	8.6	-3	42*	u	-12%&3%	2.3	9
Cc1n[nH]c(=O)c2c(NC(=O)CSc3ccc(Br)cc3)oc(C)c12	3.8	-1	-3	4.1	2%	-1.4	1
COc1ccc(C2=NN(C(=O)CSC3=NN4CCCC(=O)N=C4S3)C(c3cccc(OC)c3OC)C2)cc1 (configuration not stated)	0.9	x	-8	3.1	-3%	-3.2	-13
C#CCN(C(=O)c1cc(COc2cccc(C(F)(F)F)c2)on1)C1CCCCC1	-0.3	-1	-5	2.0	x	0.2	-1
CC1(C)CC(=O)C2=C(C1)NC(=O)CC2c1cc(F)ccc1F (configuration not stated)	-2.2	5	-2	-1.5	-1%	2.2	-11
O=C(CCS(=O)(=O)c1ccc2c(c1)NC(=O)CS2)NCCc1ccccc1	2.2	-1	8	-2.0	x	0.0	-9
Cc1c(C(=O)N2CCC(C)CC2)oc2ccc(S(=O)(=O)N3CCC4(CC3)OCCO4)cc12	-2.1	-19	9	-3.0	9%	-0.4	-7
CC(Sc1nc(-c2ccccc2)cc(C(F)(F)F)n1)C(=O)Nc1ccc2c(c1)OCO2 (configuration not stated)	-3.1	-6	-12	-1.2	-4%	-2.0	0
CCOC(=O)c1sc(Nc2nc3c(OC)cccc3s2)cc1C	2.9	x	19	10	x	-4.0	-10
O=C(NCC1CCN(Cc2ccc(Cl)cc2)CC1)C1CCCN(c2ncnc3c2nc2n3CCCCC2)C1 (configuration not stated)	-3.0	1	14	-1.0	x	-1.4	3
Cc1cc(C)nc(SCC(=O)Nc2sc3c(c2C#N)CCC(C)C3)n1 (configuration not stated)	-3.0	0	3	2.0	8%	1.6	-6
Cc1csc(NC(=O)CCNC(=O)c2ccc([N+](=O)[O-])cc2)n1	-0.4	-9	12	0.7	x	-1.6	-17
COc1cccc(NC(=S)NNC(=O)Cn2nc(C(F)F)cc2C(F)F)c1	-1.6	84*	24	0.8	10%	-0.3	0
COc1cc(C)c(S(=O)(=O)n2nnc3ccccc32)cc1C	0.0	-10	4	-4.0	u	6.5	0

3 records picked at random from those above:
SMILES	HNF4A DNA FP	ALR H2O2 inh	B2AR ag	RanGTP-Imp inh	Vif A3G	LANA-H2B inh	Calb FLC
CC(Sc1nc(-c2ccccc2)cc(C(F)(F)F)n1)C(=O)Nc1ccc2c(c1)OCO2 (configuration not stated)	-3.1	-6	-12	-1.2	-4%	-2.0	0
Cc1cccc(CN2CCN(CC(=O)NCc3ccc(F)cc3)C2=O)c1	0.5	-12	4	3.1	x	-1.2	0
CC1(C)CC(=O)C2=C(C1)NC(=O)CC2c1cc(F)ccc1F (configuration not stated)	-2.2	5	-2	-1.5	-1%	2.2	-11
